FGF22 binding: FGF22 (human) thermal shift binding. recombinant FGF22 thermal shift, SYPRO orange fluorescence; percent of sucrose octasulfate shift, DMSO zero. 340,000 compounds, 1.5% hits. calls only at 9.99 µM. AID 651658;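 active = melting point raised past a set limit in the mean and every replicate; three in four hits are not shown here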
Target sequence (Q9HCT0 whole entry, looked up): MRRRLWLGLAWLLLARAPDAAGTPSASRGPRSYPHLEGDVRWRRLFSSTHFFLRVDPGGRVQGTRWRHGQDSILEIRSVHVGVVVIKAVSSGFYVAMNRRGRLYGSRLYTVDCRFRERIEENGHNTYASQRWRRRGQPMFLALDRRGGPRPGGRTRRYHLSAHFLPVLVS
E coli growth: blocks Escherichia coli growth; OD600 absorbance (concentration not given with the values); AID 1053175; 330,000 compounds, 0.21% hits; OD600, 23 h; active compounds read low;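 active = OD600 absorbance below the run mean of sample wells minus 3.6 SD, in any replicate, cut at about 0.56 in these data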;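 note: stock transfer was 300 nL into about 60 µL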
rRNA inh HTS: inhibits bacterial ribosomal RNA function over humanized ribosomes | E. coli WT GFP vs humanized-ribosome RFP mutants, fluorescence, 24 h; active compounds read low; DMSO median 0, no signal -100 | GFP signal change (wild-type ribosome), % (concentration not given with the values) | 350,000 compounds, 1.6% hits | AID 720706;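 active = significant combined selectivity score with lowered wild-type GFP, culture density cut under 30%, mutant RFP and density less affected; inactive = any of these conditions unmet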; note: one replicate is shown; some compounds called inactive have numbers as strong as hits
A1 inh: inhibitors of the anti-apoptotic protein A1, read as caspase activation. caspase activation, % (test concentration not listed). 330,000 compounds, 0.066% hits. MEF A1-2A-BIM cells, Caspase-Glo 3/7 luminescence, 3 h; percent of clofoctol response, vehicle zero;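 active = over half of replicate activation scores above 10%, or exactly half above 10 with the replicate mean above 10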;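 note: wells of about 30 µL received 50 nL stock; many hits fall short of the cut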
Beta cell apopt: blocks beta cell apoptosis; protection from apoptosis, % (test concentration not listed); AID 435005; 300,000 compounds, 0.8% hits; INS-1E cytokine-induced death, ATP luminescence, 48 h; percent of positive-control rescue, neutral wells zero;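 active = all replicates at 75% or more, or half of them and the mean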;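 note: 0% = cytokine-treated negative control wells and 100% = positive control rescue; higher means more ATP so stronger rescue from cytokine killing; wells of about 40 µL received 100 nL stock; the first replicate is given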
T cruzi repl: blocks replication of Trypanosoma cruzi | inhibition, % (concentration not given with the values) | T. cruzi beta-gal in NIH3T3, luminescence, 90 h | 300,000 compounds, 1.4% hits;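 active = mean inhibition across valid replicates above about 55%, limit read from the data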;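 note: signal also drops with host cell toxicity which is not excluded here; 0% = plate median of DMSO wells and 100% = zero luminescence signal; higher percent means less beta-gal luminescence so fewer parasites; stock transfer was 50 nL into about 50 µL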
AF4-AF9 inh: inhibitors of human MLL-AF4/AF9 interaction | 350,000 compounds, 0.47% hits | AlphaScreen, biotin-AF4 peptide binding to FLAG-AF9 | P42568 | inhibition, % at 10 µM;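 active = every replicate reaching a set inhibition limit, whatever the replicate mean, cut at about 25% in these data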;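 note: 0% = plate neutral control median and 100% = total signal loss; the record names both 10 and 1 µM as test concentration; the first replicate is given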
Target sequence (P42568 whole entry, looked up): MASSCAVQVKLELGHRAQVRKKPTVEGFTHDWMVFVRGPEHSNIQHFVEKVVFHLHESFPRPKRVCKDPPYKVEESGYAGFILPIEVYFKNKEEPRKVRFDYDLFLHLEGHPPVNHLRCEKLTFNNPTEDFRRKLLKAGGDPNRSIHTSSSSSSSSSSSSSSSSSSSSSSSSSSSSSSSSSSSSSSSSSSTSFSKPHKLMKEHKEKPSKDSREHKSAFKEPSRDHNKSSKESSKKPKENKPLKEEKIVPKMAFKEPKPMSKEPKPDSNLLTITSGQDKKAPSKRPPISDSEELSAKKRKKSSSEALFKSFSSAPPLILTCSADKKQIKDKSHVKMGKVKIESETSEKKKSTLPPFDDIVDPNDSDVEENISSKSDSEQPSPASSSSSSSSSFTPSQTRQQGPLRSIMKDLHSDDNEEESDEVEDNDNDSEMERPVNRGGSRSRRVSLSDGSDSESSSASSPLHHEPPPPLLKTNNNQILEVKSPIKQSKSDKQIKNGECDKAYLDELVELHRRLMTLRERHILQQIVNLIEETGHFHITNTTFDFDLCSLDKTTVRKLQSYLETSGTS
UCH37 inh: human UCH37 deubiquitinating enzyme inhibition; Q9Y5K5; purified proteasome/UCH37, Ub-AMC cleavage fluorescence; inhibition, % (no concentration beside the values); 330,000 compounds, 0.33% hits;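 active = mean of two replicates above 20%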;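 note: 0% = compound-free wells with enzyme and 100% = wells lacking proteasome; stock transfer was 100 nL into about 20 µL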
Target sequence (Q9Y5K5 whole entry, looked up): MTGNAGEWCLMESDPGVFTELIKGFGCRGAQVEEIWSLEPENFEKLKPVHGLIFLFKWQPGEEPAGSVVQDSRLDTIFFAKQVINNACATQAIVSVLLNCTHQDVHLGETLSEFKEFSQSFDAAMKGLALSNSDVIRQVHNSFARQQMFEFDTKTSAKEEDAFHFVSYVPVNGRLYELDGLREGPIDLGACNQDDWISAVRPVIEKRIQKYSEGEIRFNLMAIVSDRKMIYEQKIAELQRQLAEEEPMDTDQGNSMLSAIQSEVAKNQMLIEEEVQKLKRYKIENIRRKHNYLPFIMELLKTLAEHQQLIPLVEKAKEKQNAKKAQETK
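Material: human UCH37 enzyme supplied as purified proteasome complex / Amount: 0.15 nM proteasome as dispensed / Buffer or medium: pH 7.4 Tris-HCl (50 mM) with ovalbumin, ATP-MgCl2, DTT / Times: preincubation 30 min, reaction 25 min, room temperature / Technique: AMC fluorescence from Ub-AMC cleavage, excitation 355 nm, emission 460 nm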
rRNA inh HTS OD600: second read-out of rRNA inh HTS, no call of its own (marks repeat the call); OD600 change, %; measured here: OD600 growth;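 optical density of the mix in the first replicate; 0 = DMSO median and -100 = no signal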
rRNA inh HTS RFP: second read-out of rRNA inh HTS, no call of its own (marks repeat the call); RFP signal change, %; measured here: RFP humanized mutant strains;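 first replicate; 0 = DMSO median and -100 = no signal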
Starred values were filed as active, the others as inactive; i = inactive; · = not tested or not shown; & = joins results of further samples.

SMILES	FGF22 binding	E coli growth	rRNA inh HTS	rRNA inh HTS OD600	rRNA inh HTS RFP	A1 inh	Beta cell apopt	T cruzi repl	AF4-AF9 inh	UCH37 inh
Cc1cc(C)cc(CC2CC(=O)N(c3ccc([N+](=O)[O-])cc3)C2=O)c1 (centres undefined)	·	0.67	10	13	3.1	0.3	1	-3	-4.3	2.9
CCn1c(=O)c(=O)[nH]c2cc(C(=O)N3CCN(Cc4ccc5c(c4)OCO5)CC3)ccc21	i	0.66	-11	-10	-0.2	0.0	-5	-6	-2.4	-6.6
CC1CCN(C(=O)COC(=O)/C=C/c2ccc([N+](=O)[O-])cc2)CC1	i	0.69	-3	13	0.3	-0.1	-1	·	-0.7	-0.8
C/C(N)=C(/C#N)C(=O)CSc1nnc(Nc2cccc(C)c2)s1	i	0.69&0.75	-7	3	10	0.2	·	-3	-1.6	3.5&3.3
CC(=O)Nc1cc2cc(NS(=O)(=O)c3ccc(C)cc3)ccc2oc1=O	i	0.61	·	·	·	0.3	1	-15	-1.3	-27
COc1cccc(CNc2nc(SC)ncc2CO)c1	i	0.64	-10	-5	-8.6	-0.2	-4	17	-0.3	2.3
COc1cccc(-n2c(SCc3c(C)noc3C)nnc2-c2cccc(S(=O)(=O)N(C)C)c2)c1	·	0.74	·	·	·	-0.3	-27	13	·	1.5
CCOC(=O)c1c(NC(=O)CCS(=O)(=O)c2ccccc2)sc2c1CCN(C(C)C)C2	i	0.74	11	8	0.7	-0.7	-8	12	-1.2	-3.1
Cc1ccc(CNC(=O)C2CCCN2C(=O)Nc2ccc(F)cc2)cc1 (centres undefined)	i	0.7	-3	5	1.0	0.5	-1	-12	1.5	5.5
Cc1ccc(-c2cnco2)cc1	i	0.69	18	22	3.5	0.6	-6	-14	-1.8	6.5
CCc1ccccc1NC(=O)NC1CCCCCCC1	i	0.66	23	17	3.7	0.9	0	·	-1.5	-1.5
c1ccc2c(-c3ccncc3)c[nH]c2c1	·	0.68	·	·	·	0.3	-14	-4	·	2.6
COc1ccc(-c2cc(C)no2)cc1S(=O)(=O)NCCc1ccco1	i	0.69	2	10	2.8	1.2	-3	-16	26*	1.2
Cc1ccc(NC(=O)c2ccccc2NC(=O)Cc2ccccc2)cc1	·	0.7	·	·	·	0.6	·	9	·	4.0
Cc1ccc(Cn2nnc3c(=O)[nH]c(C4CCN(S(=O)(=O)c5ccccc5F)CC4)nc32)cc1	i	0.73	-7	-20	6.2	-0.5	-7	4	-3.0	6.4
O=C(COC(=O)c1n[nH]c(=O)c2ccccc12)Nc1cccc(S(=O)(=O)N2CCOCC2)c1	i	0.7	2	-4	1.7	·	·	·	-0.8	2.4
CCCCOc1ccc(NC(=O)CN2CCN(Cc3ccccc3)CC2)cc1	i	0.69	-4	-28	17	0.4	4	17	1.0	2.1
COc1ccc(-n2c(Cc3cccn3C)nnc2SCC(=O)Nc2cccc(Cl)c2)cc1	i	0.74	-11	-14	4.6	1.3	-11	0	6.7	0.8
Oc1ccccc1/C=N/[n+]1ccccc1	i	·	5	10	-1.6	1.0	2	-1	5.5	·
CCCC(NCC(=O)Nc1ccccc1C(=O)NC1CC1)c1ccccc1 (centres undefined)	i	0.65	-6	-5	-1.0	·	·	·	-2.7	4.7

An excerpt from above, reduced to Beta cell apopt.
SMILES	Beta cell apopt
CC(=O)Nc1cc2cc(NS(=O)(=O)c3ccc(C)cc3)ccc2oc1=O	1
COc1cccc(CNc2nc(SC)ncc2CO)c1	-4

(more compounds)
SMILES	FGF22 binding	E coli growth	rRNA inh HTS	rRNA inh HTS OD600	rRNA inh HTS RFP	A1 inh	Beta cell apopt	T cruzi repl	AF4-AF9 inh	UCH37 inh
O=C(NCCN1C(=O)C2C3C=CC(C3)C2C1=O)Nc1cccnc1 (centres undefined)	i	0.73	8	13	0.7	-0.2	-7	-4	1.4	4.0
CC(C)/C=N/NC(=O)c1ccc(Cl)cc1	i	·	7	5	0.2	0.9	-4	-5	-1.6	·
C#CCOc1ccc(Cl)cc1/C=N/O	·	·	-3	1	-2.2	-0.4	·	2	-13	·
Cc1ccc(C(=O)OCC(=O)N2CC(C)CC(C)C2)cc1S(=O)(=O)N1CCOCC1 (centres undefined)	i	0.69	-1	0	-1.0	0.7	-4	-4	0.6	2.5
CCOC(=O)[C@@H]1[C@H]2COc3ccc(Br)cc3[C@@H]2N2C(=O)N(c3ccc(F)cc3)C(=O)[C@@]12C	i	·	0	2	0.5	-1.4	-14	·	·	20*
O=C1CN(C(=O)CSc2nc3ccccc3c(=O)n2CC2CCCO2)c2ccccc2N1 (centres undefined)	i	0.69	-3	-7	0.6	0.3	6	6	0.4	-1.7
O=C(C1CC(=O)N(C2CCCC2)C1)N1CCN(c2ccccc2)CC1 (centres undefined)	i	0.7	5	13	2.7	0.6	4	1	0.1	1.3
CNC(=O)c1ccc(Oc2ccc(C(=O)NC)cc2)cc1	i	0.69	-2	-4	-5.2	-0.7	0	-10	0.1	2.9
O=C(O)CSc1cc(C(F)(F)F)nc(-c2ccccn2)n1	·	0.67	·	·	·	1.8	2	-5	·	-1.8
CCCCCNCc1ccc(Cl)cc1	·	0.7	24	17	2.5	-0.7	0	11	-0.6	0.5

3 consecutive entries out of the list so far, quoted:
SMILES	FGF22 binding	E coli growth	rRNA inh HTS	rRNA inh HTS OD600	rRNA inh HTS RFP	A1 inh	Beta cell apopt	T cruzi repl	AF4-AF9 inh	UCH37 inh
CNC(=O)c1ccc(Oc2ccc(C(=O)NC)cc2)cc1	i	0.69	-2	-4	-5.2	-0.7	0	-10	0.1	2.9
O=C(O)CSc1cc(C(F)(F)F)nc(-c2ccccn2)n1	·	0.67	·	·	·	1.8	2	-5	·	-1.8
CCCCCNCc1ccc(Cl)cc1	·	0.7	24	17	2.5	-0.7	0	11	-0.6	0.5

(continued)
SMILES	FGF22 binding	E coli growth	rRNA inh HTS	rRNA inh HTS OD600	rRNA inh HTS RFP	A1 inh	Beta cell apopt	T cruzi repl	AF4-AF9 inh	UCH37 inh
CC1CC(C)CN(S(=O)(=O)N2CCCC(C(=O)NCCCN3CCCCC3C)C2)C1 (centres undefined)	i	0.69	5	5	0.1	-0.3	-3	2	3.9	1.4
O=C(c1cc(-c2ccco2)nn1-c1cccc(Cl)c1)N1CCCCC1	·	0.72	·	·	·	1.1	-8	21	·	6.7
O=S1(=O)N[C@@H](CC2=CCCCC2)C2CCCCC2O1 (some centres undefined)	i	·	-23	-21	-0.5	-0.7	·	-20	-3.2	1.7
N#Cc1ccc(OCC(=O)N(C2CCCCC2)C2CCS(=O)(=O)C2)cc1 (centres undefined)	i	0.72	4	3	-0.4	-0.8	-3	·	4.3	1.9
COc1ccc(C(=O)Nc2ccc(Br)cc2F)cc1S(=O)(=O)N1CCCC1	i	0.65	-12	-16	3.1	·	·	·	1.2	6.1
CC(C)(C)CC(C)(C)NC(=S)N1CCN(Cc2ccc3c(c2)OCO3)CC1	i	0.74	16	15	-1.3	0.0	-6	-4	1.3	2.4
COc1cc2c(cc1NC(=O)C(C)Sc1nc3ccccc3n1C)oc1ccccc12 (centres undefined)	·	0.73	·	·	·	0.4	10	12	·	4.7
COc1cc(/C=C2/CCc3ccccc3C2=O)cc(OC)c1OC	·	0.68	·	·	·	0.5	-5	8	·	3.9
Cc1ccc(N(CC(=O)NCc2ccc(F)cc2)C(=O)c2csnn2)cc1C	i	0.72	4	9	2.5	0.2	3	-7	-2.0	-1.7
O=C1CN(C(=O)COC(=O)[C@@H]2CC(O)CN2S(=O)(=O)c2ccc(Cl)cc2)c2ccccc2N1 (some centres undefined)	i	0.68	4	3	1.1	0.7	-1	·	1.7	0.6
Cc1ccccc1-n1nnc2c(=O)oc3ccccc3c21	·	0.78	·	·	·	-0.3	-4	-20	·	-5.6
CCCOC(=O)c1cc2ccccc2oc1=O	·	0.68	·	·	·	0.2	-5	-21	·	-28
CN(C)c1ccc(/C=C/C(=O)c2cc(Cl)ccc2O)cc1	i	0.7	-3	-4	7.5	-0.6	6	3	8.2	5.8
c1ccc(-c2n[nH]c(-c3ccccn3)n2)nc1	i	0.63	9	9	0.7	-5.6&-5.9	4&9	7&-23	-2.3	-2.0
CC(C)CNC(=O)C1Nc2ccc(OC(F)(F)F)cc2C2C=CCC12 (centres undefined)	i	0.72	3	18	-2.7	0.4	2	-12	4.3	-1.8
Nc1nc(NCc2ccco2)nc(NC2CCCCC2)c1[N+](=O)[O-]	i	0.65	12	9	2.6	0.2	2	-7	-1.6	-1.6
CCCNC(=O)/C=C/c1ccc(C(C)C)cc1	i	0.64	-27	-33	-3.8	-0.5	0	-3	-2.7	6.7
S=C1N(c2ccccc2)CN(C2CCCCC2)CN1c1ccccc1	i	0.7	6	1	0.3	0.7	-4	-2	-3.3	1.2
CC(=O)N1c2ccc(S(=O)(=O)N3CCCC3)cc2CC1C(=O)NCc1ccc(N(C)C)cc1 (centres undefined)	i	0.64	-5	-10	-9.1	-0.3	-3	3	-5.7	0.1
CCN(Cc1nc2ccccc2c(=O)[nH]1)Cc1nc2ccsc2c(=O)[nH]1	i	0.71	7	6	-0.2	-0.5	-6	-31	-0.1	0.3
CC(C)NCC(O)c1ccc2ccccc2c1 (centres undefined)	i	0.68	·	·	·	-0.6	1	·	-3.3	5.2
CC(C)(C)Cc1nnc(NS(=O)(=O)c2ccc([N+](=O)[O-])cc2)s1	i	0.67	21	12	2.6	-0.3	0	1	-1.6	5.9
CCOc1ccc(Nc2nc3ccccc3n3cnnc23)cc1	i	0.71	12	5	11	·	·	6	0.5	-48
Cc1ccc(S(=O)(=O)N(CC(=O)NCc2ccco2)Cc2ccc(F)cc2)cc1	·	0.74	·	·	·	0.2	-6	11	·	-1.7
CC(C)CC(=O)N/C(N)=N/c1nc2ccccc2s1	·	0.68	·	·	·	-0.5	-2	0	·	2.1
CNC(=S)N1CCC(Cc2ccccc2)CC1	i	0.64	5	8	-0.4	1.0	-1	4	-16	3.0
COc1ccc(C(=O)/C(C#N)=N/Nc2ccccc2[N+](=O)[O-])cc1	i	·	6	12	-8.8	0.1	27	-37	-2.5	·
O=C1N(c2ccccc2)c2ccccc2C1(O)C(F)(F)F (centres undefined)	i	0.64	-5	1	-2.5	0.0	3	-15	-0.7	0.9
COCCN(C(=O)CC1CCCCC1)c1c(N)n(CC(C)C)c(=O)[nH]c1=O	i	0.63	8	14	-2.7	0.5	-5	·	-0.1	3.1
O=C(c1n[nH]c(=O)c2ccccc12)N1CCOCC1	·	0.73	·	·	·	0.2	-1	-8	·	-0.8
O=C(NCc1ccccn1)c1cc(Cl)ccc1OCc1ccccc1	i	0.67	-43	-55	-9.2	-0.1	·	1	-2.1	3.3
O=C(Nc1cccnc1)C1(c2ccc(Cl)cc2)CCCC1	·	0.73	·	·	·	0.2	0	7	·	3.4
C[C@@H]1O[C@@H](O[C@H]2[C@H](O)[C@@H](O)[C@H](Oc3c(-c4ccc(O)c(O)c4)oc4cc(O)cc(O)c4c3=O)O[C@@H]2CO)[C@H](O)[C@H](O)[C@H]1O	i	·	-3	4	-2.2	0.4	3	·	-1.5	·

Source: PubChem

The list is partial (hit frequency here may not be typical).
